GLA inh pH 4.5 – blocks human alpha-galactosidase A at pH 4.5 | 230,000 tested, under 10 active | activity change, negative = inhibition, % at 105 µM | P06280 | AID 1467 | purified enzyme, 4-MU-alpha-Gal fluorescence, pH 4.5; inconclusive = small, poorly fitted or top-dose-only inhibition, or a rising curve; inactive = flat fitted curve, though single readings scatter; no compound was filed as active;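 further: 0% = full activity with enzyme and -100% = basal without enzyme; dose as in the result columns while the protocol names 77 µM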
miR-21 reporter – miR-21 reporter, rising signal. 340,000 tested, under 10 active. Potency, µM (doses to about 38.3 µM), for inactives: top-dose reporter change, positive = more light. HeLa miR-21 FLuc reporter, luciferase, 48 h; active = well fitted rising curve with a large enough effect; inconclusive = small, poorly fitted or top-dose-only effect; inactive = no such curve, though single readings can be large or run the other way;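 further: % of control where 0% means no effect; miR-21 action dims this reporter so a rising signal means less miR-21 action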
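HeLa cells endogenously expressing miR-21, stably carrying CMV-driven firefly luciferase with a downstream miR-21 binding site, 2000 cells/well. Titrations up to approximately 40 uM, 48 hours; luciferase luminescence read.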
Rango dissoc inh – inhibitors of RanGTP-induced Rango-importin beta complex dissociation. O95149+P62826. Biochemical FRET Rango-importin beta, RanGTP-induced dissociation. Potency, µM (top dose mostly 46.1 µM), for inactives: at the top dose activity change, negative = inhibition. 340,000 tested, 0.071% active. AID 540253; active means falling FRET ratio curve, often poorly fitted, with flat reads before Ran was added; inconclusive means other falling curves, or compound fluorescence or quenching; inactive means flat or rising ratio curve;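 further: potency means the concentration at half of the fitted maximal effect; % of control where 0% means no effect; nearly all actives have a fitted effect of over 45% in size; -100% = wells without RanGTP and RCC1; the record marks most hits as doubtful in a second field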
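Rango (0.1 uM)–importin beta (0.25 uM) complex; RanGTP-RCC1 trigger; 45 min RT; CFP/YFP FRET read.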
Rango complex inh – Rango-importin beta binding inhibition; Rango CFP/YFP FRET sensor + importin beta, 45 min; 340,000 tested, 0.031% active; Potency, µM (doses to about 92.2 µM), for inactives: at the highest dose inhibition of complex formation; active = rising FRET ratio curve, often small or poorly fitted; inconclusive = mostly compound fluorescence or quenching in the first reads; inactive = flat curves in all reads;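 further: potency means the concentration at half of the fitted maximal effect; 0% = DMSO wells and 100% = buffer wells lacking importin beta; nearly all actives have a fitted effect of over 15% in size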
Target sequence (Q14974 whole entry, looked up): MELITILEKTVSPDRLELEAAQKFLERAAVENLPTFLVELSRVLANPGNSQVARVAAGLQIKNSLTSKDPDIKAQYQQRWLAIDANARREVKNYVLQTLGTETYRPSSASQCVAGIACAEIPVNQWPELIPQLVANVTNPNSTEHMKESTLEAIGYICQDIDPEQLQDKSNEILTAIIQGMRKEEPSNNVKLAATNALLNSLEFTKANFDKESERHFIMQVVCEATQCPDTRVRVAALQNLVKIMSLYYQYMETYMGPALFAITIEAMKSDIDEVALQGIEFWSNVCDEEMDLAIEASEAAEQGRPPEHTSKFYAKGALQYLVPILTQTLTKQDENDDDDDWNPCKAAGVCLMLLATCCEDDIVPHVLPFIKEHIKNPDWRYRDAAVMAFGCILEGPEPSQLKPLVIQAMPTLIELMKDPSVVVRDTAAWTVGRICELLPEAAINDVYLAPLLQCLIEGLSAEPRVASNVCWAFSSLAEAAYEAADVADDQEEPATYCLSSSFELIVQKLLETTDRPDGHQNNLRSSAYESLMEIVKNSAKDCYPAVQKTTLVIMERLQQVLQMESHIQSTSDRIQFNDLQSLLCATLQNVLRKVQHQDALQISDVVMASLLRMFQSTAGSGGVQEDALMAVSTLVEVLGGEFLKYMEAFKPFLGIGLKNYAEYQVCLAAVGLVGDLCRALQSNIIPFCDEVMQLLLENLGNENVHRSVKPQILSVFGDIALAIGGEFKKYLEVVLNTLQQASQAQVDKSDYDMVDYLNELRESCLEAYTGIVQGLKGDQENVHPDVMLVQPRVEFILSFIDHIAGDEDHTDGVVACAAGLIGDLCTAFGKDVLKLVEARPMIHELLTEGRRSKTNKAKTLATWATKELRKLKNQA
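FRET biosensor (snurportin 1 IBB flanked by EYFP and cerulean), 50 nM, with compound 5 min, then 0.125 microM importin beta in PBS, 1 mM DTT, 0.02% Tween-20, 0.1% BSA. CFP/YFP ratio read after 45 min at room temperature; pre-read flags interference.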
The depositor's hits bear a star; ? = inconclusive; nt = no result given; & = joins results of further samples; [ ] = another dose, or the depositor's remark.

SMILES	GLA inh pH 4.5	miR-21 reporter	Rango dissoc inh	Rango complex inh
Cc1ccc(C(=O)NCc2ccc(F)cc2)s1	nt	nt	-13%	-1.5%
Cc1nn(C)cc1S(=O)(=O)Nc1cccc(Cl)c1	nt	2%	0%	-6.0%
CCc1ccc(NC(=O)C[n+]2cc(-c3ccc(C)cc3)n3c2CCC3)cc1	-6	26%	0%	?
COc1cccc(-c2noc(-c3ccoc3C)n2)c1	-1	-68%	6%	-1.0%
CC1CC(C)CN(C(C)C(=O)Nc2cc(S(=O)(=O)N3CCCCC3)ccc2Cl)C1 (stereo not given)	nt	nt	-5%	-0.1%
CC(=O)Nc1ccc(S(=O)(=O)N2CCSC2c2ccccc2)cc1 (stereo not given)	-6	5%	0%	-1.0%
Cc1ccc(C)c(S(=O)(=O)N2CCN(C(=O)C3CC3C)CC2)c1 (stereo not given)	nt	nt	-18%	1.1%
CCc1ccc(S(=O)(=O)NCCc2csc(C)n2)s1	2	-7%	-5%	-2.6%
Cn1c(N)c(C(c2ccccc2)c2c(N)n(C)c(=O)n(C)c2=O)c(=O)n(C)c1=O	3	-3%	-4%	-1.0%
Cc1noc(C)c1COc1ccc(C(=O)Nc2cccnc2)cc1	-1	2%	6%	0.3%
CC/C(=N\NC(=O)c1ccc(N(C)C)cc1)c1ccccc1	3	-24%	-9%	-0.8%
O=C(CSC(=S)N1CCOCC1)Nc1ncc2c(n1)CCCC2=O	0	-3%	-6%	-3.8%
O=C(O)/C=C/C(=O)NNC(=O)c1ccc(Br)cc1	1	-15%	13%	-0.1%
COC(=O)c1sc(N/N=C/c2ccc(C(C)C)cc2)nc1C	nt	-13%	?	?
CC(C)C(=O)Nc1ccc(NC(=O)c2cc3ccccc3o2)cc1	10	-70%	-5%	-3.1%
COc1ccc(N2C(=O)[C@@H]3[C@H](C2=O)[C@H](C(C)=O)N2c4ccccc4C=C[C@@H]32)cc1	-1	-6%	?	?
COc1ccc(S(=O)(=O)NCCSC(C)(C)C)c(Cl)c1Cl	3	-3%	18%	?
O=C(CC1COc2ccccc2O1)NC1CCCCC1 (stereo not given)	2	-25%	-9%	1.1%
COc1ccc(Nc2ccc(C(F)(F)F)cc2[N+](=O)[O-])cn1	nt	-7%	10%	0.2%
COc1ccc(-c2onc(C)c2-c2ccc3c(c2)OCCO3)c(O)c1	1	3%	4%	-3.4%
O=C(COC(=O)c1ccccc1SCC(=O)N1CCCC1)Nc1ccccc1	nt	-13%	1%	?
O=C(O)C(c1ccccc1)N1C(=O)c2ccccc2C1=O (stereo not given)	nt	-4%	-12%	-0.8%
CN(CC(=O)Nc1ccccc1Cl)C(=O)COc1cccc2c1OC(C)(C)C2	nt	nt	11%	-0.2%
CC(=O)c1sc(NC(=O)CSC(C)C(=O)Nc2cc(C)on2)nc1-c1ccccc1 (stereo not given)	nt	nt	3%	-1.9%
Cc1ccc(C(=O)N(C)Cc2ccccc2)cc1S(=O)(=O)N1CCOCC1	nt	-1%	7%	3.2%
CC(NC(=O)C1CCCN1S(=O)(=O)c1ccccc1)c1ccccc1 (stereo not given)	nt	0%	1%	-1.5%
CC(C)Cc1cc(C(=O)NCc2cccnc2)no1	-1	-20%	-3%	0.9%
CC(=O)c1cccc(NC(=O)CCCNC(=O)c2ccc(Cl)cc2)c1	nt	10%	0%	?
CN(C(=O)COc1ccccc1)c1nnc(-c2ccncc2)s1	-5	-14%	24%	-0.7%
O=C(CC1SC(N2CCCC2)=NC1=O)Nc1ccc(C(=O)N2CCN(c3cccc(Cl)c3)CC2)cc1 (stereo not given)	nt	nt	11%	3.6%
O=C(COC(=O)COc1ccc(Cl)cc1)NC1CC1	nt	nt	-15%	-0.3%
O=C(Nc1ccc(N2CCOCC2)cc1)c1cccc(S(=O)(=O)N2CCOCC2)c1	nt	nt	19%	?
CN(C)C(=O)c1cn(-c2ccc(Cl)cc2)c(=O)c2ccccc12	10	0%	3%	-0.3%
Clc1ccccc1C1Nc2cccc3cccc(c23)N1	nt	7%	-17%	?
Cc1ccc(CNCC(O)(c2ccccc2)c2ccccc2)cc1	nt	-16%	21%	-3.5%
COc1ccccc1N1CCN(C(=O)CCSCc2ccccc2F)CC1	-10	-37%&-24%	-11%	0.2%
CCOC(=O)C(=CNc1ccc(C)cc1C)C(=O)OCC	-6	-8%	6%	-5.8%
CN1CCN(C(=O)c2cc3ccccc3oc2=O)CC1	10	-5%	?	?
C=CCn1c(CSc2nc3ccccc3s2)nnc1SCC(=O)NCc1ccco1	-3	-1%	-17%	-1.8%
Cc1ccc(NC(=O)Nc2ccc3c(c2)N(C)C(=O)CS3)nc1	-3	-26%	-8%	0.9%
CC1(C)Cc2c(c(-c3ccccc3)nc(N3CCCC3)c2C(N)=O)CO1	-14	-2%	-11%	0.6%
CN(C(=O)CC1C(=O)NCCN1Cc1ccccc1C(F)(F)F)C1CCOCC1 (stereo not given)	nt	0%	8%	-2.3%
O=C1CSC(c2ccccn2)N1c1ccc(Br)cc1 (stereo not given)	1[21.1 µM]	-5%	1%	3.1%
CCNC(=S)N/N=C(\C)c1ccc(Cl)s1	-7	4%	13%	8.7%
COc1cccc(C(C#N)NCCCNC(C#N)c2cccc(OC)c2OC)c1OC (stereo not given)	nt	nt	-9%	-3.1%
Cc1ccc(OCC(=O)Nc2ccc3c(c2)OCO3)c([N+](=O)[O-])n1	-7	-74%	-12%	-1.7%
COc1ccc(OC)c(NC(=O)CSc2nc(=O)n(Cc3ccccn3)c3c2CCC3)c1	nt	nt	1%	1.2%
Cc1ccc(-n2ncc3c(=O)[nH]c(SCC(=O)N4CCN(c5ccccc5)CC4)nc32)cc1	-3	-4%	-9%	-3.6%
NC(=O)c1ccsc1N	2	-7%	nt	nt
Fc1cccc(CCN2CCN=C2Nc2ccccc2)c1	nt	nt	12%	-5.4%
COc1cccc(C(CC(=O)Nc2cccc3ccccc23)NC(=O)c2ccccc2)c1 (stereo not given)	-6	-14%	7%	-0.3%
Cc1ccc(C)c(NC(=O)C(OC(=O)c2cc[n+]([O-])cc2)c2ccccc2)c1 (stereo not given)	nt	nt	10%	3.6%
COc1cc(OC)c(OC)cc1CN1CCCC(C(=O)c2ccc3c(c2)OCO3)C1 (stereo not given)	3	-1%	2%	4.1%
CC(=O)Nc1cccc2c1C(=O)N(c1cccc(OC(C)=O)c1)C2=O	2	-2%	-7%	0.2%
CCOC(=O)c1c(NC(=O)CC)sc(C(=O)N2CCCCC2)c1C	2	-3%	-15%	1.1%
CCn1c(Cn2nnc(-c3ccccc3)n2)nnc1SCC(=O)N1CCOCC1	0	-4%	-25%	6.4%
CCN(CC)S(=O)(=O)c1ccc2c(c1)N(CC(=O)N1CCCC1)C(=O)CO2	nt	3%	5%	-0.8%
CCN(CC(=O)Nc1cc(Cl)ccc1C)C(=O)CSCc1c(C)noc1C	nt	nt	26%	6.8%
CCOc1ccc(NC(=O)CNS(=O)(=O)c2c(C)cc(C)cc2C)cc1	nt	4%	0%	2.6%
COc1ccc(CCC(=O)Nc2ccc3c(c2)OCCO3)cc1	-6	-18%	-2%	-0.7%

Other compounds follow:
SMILES	GLA inh pH 4.5	miR-21 reporter	Rango dissoc inh	Rango complex inh
O=C(Nc1ccc(S(=O)(=O)NCc2ccco2)cc1)c1cccc(F)c1	nt	-18%	-2%	4.3%
COc1ccc(-c2cc(C(=O)NN)n(-c3ccccc3)n2)cc1	2	-29%	-3%	0.9%
O=C1C(=O)N(CCCc2ccccc2)c2ccccc21	nt	-5%	?	4.6%
C/C(=N\Nc1ccccc1C(=O)O)c1ccncc1	nt	-67%	10%	-2.0%
C/C=C/c1ccc(OCCN2CCc3ccccc3C2)c(OC)c1	-1	-6%	1%	-0.3%
N#CCC(=O)N1CCCCCC1	-13	-14%	0%	-0.5%
Cc1nc(C(=O)O)sc1C1(C)CC(c2cccc([N+](=O)[O-])c2)=NO1 (stereo not given)	nt	nt	-4%	-0.5%
Cc1cc(C)c[n+](CC(=O)c2ccc(NC(=O)c3ccccc3)cc2)c1	1	3%	-8%	-0.6%
O=C(Nc1ccccc1)c1cnc2ccccc2n1	-1	-59%	34%	-1.7%
COc1ccc(C(=O)Nc2ccc3nc(N4CCOCC4)sc3c2)cc1OC	nt	nt	0%	-5.0%
CCc1cc(-c2ccc3c(c2)COc2c4ccccc4nn2-3)on1	nt	nt	-8%	-2.9%
CSc1ccc(C(=O)/C=C/c2ccc(N)cc2)cc1	-9	-39%	5%	?
COc1ccccc1N1CCN(C2CCCN(S(=O)(=O)c3ccc(C)cc3)C2)CC1 (stereo not given)	nt	9%	2%	-4.6%
COc1ccc2c(c1)c(=O)oc1c(C)c(OCc3cc(C(=O)O)oc3C)ccc12	-1	6%	22%	-0.4%
O=C(CCCNC(=O)c1ccc(Cl)cc1)Nc1ccc(F)c(S(=O)(=O)N2CCOCC2)c1	nt	nt	-14%	0.3%

Record cards, as listed above. Order of values: GLA inh pH 4.5 | miR-21 reporter | Rango dissoc inh | Rango complex inh
`C/C(=N\Nc1ccccc1C(=O)O)c1ccncc1` as listed: nt | -67% | 10% | -2.0%
`COc1ccc2c(c1)c(=O)oc1c(C)c(OCc3cc(C(=O)O)oc3C)ccc12` as listed: -1 | 6% | 22% | -0.4%
`Cc1cc(C)c[n+](CC(=O)c2ccc(NC(=O)c3ccccc3)cc2)c1` as listed: 1 | 3% | -8% | -0.6%
`N#CCC(=O)N1CCCCCC1` as listed: -13 | -14% | 0% | -0.5%
`COc1ccc(C(=O)Nc2ccc3nc(N4CCOCC4)sc3c2)cc1OC` as listed: nt | nt | 0% | -5.0%

Continued.
SMILES	GLA inh pH 4.5	miR-21 reporter	Rango dissoc inh	Rango complex inh
Cc1cc(C)c(C)c(S(=O)(=O)N2CCCCC2C(=O)O)c1C (stereo not given)	-1	-2%	-2%	-0.9%
COc1ccc(S(=O)(=O)N/N=C\c2ccc3c(c2)OCO3)c(OC)c1	nt	11%	1%	0.1%
CCn1c(SCc2cccnc2)nnc1-c1c[nH]c2ccccc12	5	-3%	-3%	-0.4%
COc1ccc(OC(=O)COc2cccc(C)c2)cc1	nt	-3%	0%	4.7%
COc1ccc(N2C(=O)NC(NS(=O)(=O)c3ccccc3)(C(F)(F)F)C2=O)cc1 (stereo not given)	nt	-1%	-2%	-2.3%
O=C(CN1C(=O)c2ccc([N+](=O)[O-])cc2C1=O)NCc1ccc(C(=O)O)cc1	nt	3%	16%	-3.2%
O=C(O)c1ccccc1Oc1ccc(Oc2ccccc2)cc1	nt	-12%	9%	-2.7%
CN(C(=O)CN1CCC(NC(=O)c2ccccc2Br)CC1)C1CCCCC1	nt	4%	-6%	1.1%
COc1ccc(CC(=O)NCc2nnc(SCC(=O)c3ccc(OC)cc3)n2C)cc1	-4	-3%	-1%	?
CCOc1ccc(NC(=O)CSc2nnc(-c3ccccn3)n2N)cc1	0	2%	-8%	3.8%
Cc1ccc(S(=O)(=O)Nc2c(C)cc([N+](=O)[O-])cc2C)cc1	nt	nt	-11%	-4.4%
Cc1c(C(=O)N2CCOCC2)sc(NC(=O)c2ccc3c(c2)OCO3)c1C#N	-8	-5%	?	?
CCOC(=O)[C@H]1[C@H]2COc3ccc(Br)cc3[C@H]2N2C(=O)CN(Cc3ccc(C)cc3)C(=O)[C@@]12C	nt	nt	-5%	0.1%
CC(=O)Nc1ccc(OCC(O)Cn2ccnc2C)cc1 (stereo not given)	8	0%	-9%	-0.4%
COc1cccc(-c2csc(N3CCN(C(=S)Nc4cccc(Cl)c4)CC3)n2)c1	10	2%	1%	2.9%
O=C1/C(=C/c2ccncc2)CCC/C1=C\c1ccncc1	0	?	1%	0.7%
CCc1ccc(NC(=O)CSc2nc3cc(C(=O)OC)ccc3c(=O)n2CC2CCCO2)cc1 (stereo not given)	3	-3%	1%	0.4%
Cc1nc(SC(C)C(=O)Nc2cccc(C(F)(F)F)c2)c2c(C)c(C(=O)O)sc2n1 (stereo not given)	-12	-1%	15%	-2.0%
COC(=O)c1sc(-c2ccccc2)cc1NC(=O)C1CC1	14	-4%	-10%	6.6%
COCCOC(=O)C1=C(C)NC(=O)NC1c1c(OC)ncnc1OC (stereo not given)	1	0%	6%	-3.9%

Bioassay records from PubChem BioAssay.

Not all compounds are listed; the hit share may differ from the screen's.
